PMP22 txn: modulates PMP22 transcription in S16 Schwann cells; S16 Pmp22-F2sN Schwann cells (luciferase reporters placed in the Pmp22 gene), FLuc/NLuc coincidence luminescence, 24 h; Potency, µM (series often up to 57.5 µM), inactives show at the highest dose activity change, negative = inhibition, actives largely listed as inhibitors; 2% of 43,000 active; active = clear falling dose curves in both reporters; inconclusive = both reporters move, but less clearly or upward; inactive = either reporter flat; the % is the NLuc reporter signal; further: on the % scale 0 is the no-effect control and ±100 the full control effect; some results filed as inactive show a strong effect at the top dose
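Transcriptional readout in edited S16(c9) cells: two luciferases reported from the Pmp22 locus, measured in turn after 24 h compound incubation.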
HTT prom inh: inhibits huntingtin promoter activity. HEK293 HTT promoter firefly luciferase reporter (activity 0% = vehicle and -100% = no light), 24 h. Potency, µM (series often up to 57.5 µM), inactives show top-dose activity change, negative = inhibition, usual class: inhibitors. 0.93% of 48,000 active. AID 1508623; active means well fitted inhibition curve with a large enough effect; inconclusive means small, poorly fitted or top-dose-only effect; inactive means no such curve, though single readings can be large or run the other way; further: nearly all actives have a fitted effect of over 50% in size
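Firefly luciferase signal from promoter-reporter HEK293 cells was scaled between vehicle (0%) and zero RLU (-100%). Compounds were tested at final concentrations of up to 57.5 uM over 24 h at 37 degrees C. PTC124 at 50 uM final served as control inhibitor.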
* hit, by the source's call; ? = inconclusive. Potency means the concentration at half of the fitted maximal effect.

The first 21 entries (preview)
SMILES | PMP22 txn | HTT prom inh
COc1ccc(NC(=O)Cn2ccn(-c3ccccc3)c(=O)c2=O)cc1 | 9% | -5%
Cn1c(SCC(=O)Nc2ccc(F)cc2)nc2c([nH]c3ccccc32)c1=O | ? | -15%
CCC(=O)Nc1ccccc1-c1nc2ccccc2n(C(CC)C(=O)Nc2cccc(C(C)=O)c2)c1=O (stereo unspecified) | ? | -4%
CCCC12CN3CC(C)(CN(C1)C3c1cn(CC)c3ccccc13)C2=O (stereo unspecified) | -8% | ?
Cc1ccc(-n2ncc3c(NCCc4ccc(S(N)(=O)=O)cc4)ncnc32)cc1 | -8% | -34%
COc1ccc(-c2cc3ccc(O)c(CN4CCCC(C)C4)c3oc2=O)cc1OC (stereo unspecified) | 10% | 5%
O=C(CCc1nnc2n(Cc3ccccc3Cl)c(=O)c3ccccc3n12)Nc1ccc(F)cc1 | ? | -12%
CCCSCCCNC(=O)C1CCN(c2nn3cc(-c4ccc(F)cc4)nc3s2)CC1 | 7% | -14%
CCOC(=O)NC1(C(F)(F)F)NC(=O)N(c2ccc(C)c(C)c2)C1=O (stereo unspecified) | 11% | -16%
O=C(Nc1ccc(F)cc1)C1CCN(S(=O)(=O)c2ccc3c(c2)CCCN3C(=O)C2CCC2)CC1 | ? | ?
Cn1cccc1-c1cc2n(n1)CCC(=O)N2CCCC(=O)NCc1ccc(F)cc1 | -67% | 16%
CCCCNS(=O)(=O)c1ccc2nc(-c3cccnc3)cc(C(=O)NCCC)c2c1 | -28% | -20%
Cc1ccc(NC(=O)c2cn3c4c(ccc(Cl)c4c2=O)OC(C)C3)cc1C (stereo unspecified) | ? | 0%
Cc1cccn2c(=O)c(C(=O)NC(C)c3ccccc3)cnc12 (stereo unspecified) | -4% | 7%
CCCCc1ccc(C(=O)N/C(=C\c2ccc(C)cc2)C(=O)NC2CCCCC2)cc1 | -12% | 3%
O=C(CSc1nc2c([nH]c3ccccc32)c(=O)n1-c1ccccc1)N1CCCC1 | -16% | -6%
COc1cccc(CNC(=O)CCc2c(C)c3cc4c(C)coc4c(C)c3oc2=O)c1 | ? | -4%
Cc1ccc(C)c(NC(=O)CSC2=Nc3ccccc3N=C(c3ccc(F)cc3)C2)c1 | ? | -1%
CC(C)(C)C1CCc2nc(NC(=O)Cc3ccc(Cl)cc3)sc2C1 (stereo unspecified) | ? | ?
Cc1nn(C)c2c1c(-c1ccccc1)cc(=O)n2CC(=O)NC(C)C | -29% | -4%
CCOC(=O)c1cc2c(=O)n3ccccc3nc2n(CC2CCCO2)c1=NC(=O)c1ccccc1F (stereo unspecified) | ? | -8%

Main list, from the start:
SMILES | PMP22 txn | HTT prom inh
COc1ccc(NC(=O)Cn2ccn(-c3ccccc3)c(=O)c2=O)cc1 | 9% | -5%
Cn1c(SCC(=O)Nc2ccc(F)cc2)nc2c([nH]c3ccccc32)c1=O | ? | -15%
CCC(=O)Nc1ccccc1-c1nc2ccccc2n(C(CC)C(=O)Nc2cccc(C(C)=O)c2)c1=O (stereo unspecified) | ? | -4%
CCCC12CN3CC(C)(CN(C1)C3c1cn(CC)c3ccccc13)C2=O (stereo unspecified) | -8% | ?
Cc1ccc(-n2ncc3c(NCCc4ccc(S(N)(=O)=O)cc4)ncnc32)cc1 | -8% | -34%
COc1ccc(-c2cc3ccc(O)c(CN4CCCC(C)C4)c3oc2=O)cc1OC (stereo unspecified) | 10% | 5%
O=C(CCc1nnc2n(Cc3ccccc3Cl)c(=O)c3ccccc3n12)Nc1ccc(F)cc1 | ? | -12%
CCCSCCCNC(=O)C1CCN(c2nn3cc(-c4ccc(F)cc4)nc3s2)CC1 | 7% | -14%
CCOC(=O)NC1(C(F)(F)F)NC(=O)N(c2ccc(C)c(C)c2)C1=O (stereo unspecified) | 11% | -16%
O=C(Nc1ccc(F)cc1)C1CCN(S(=O)(=O)c2ccc3c(c2)CCCN3C(=O)C2CCC2)CC1 | ? | ?
Cn1cccc1-c1cc2n(n1)CCC(=O)N2CCCC(=O)NCc1ccc(F)cc1 | -67% | 16%
CCCCNS(=O)(=O)c1ccc2nc(-c3cccnc3)cc(C(=O)NCCC)c2c1 | -28% | -20%
Cc1ccc(NC(=O)c2cn3c4c(ccc(Cl)c4c2=O)OC(C)C3)cc1C (stereo unspecified) | ? | 0%
Cc1cccn2c(=O)c(C(=O)NC(C)c3ccccc3)cnc12 (stereo unspecified) | -4% | 7%
CCCCc1ccc(C(=O)N/C(=C\c2ccc(C)cc2)C(=O)NC2CCCCC2)cc1 | -12% | 3%
O=C(CSc1nc2c([nH]c3ccccc32)c(=O)n1-c1ccccc1)N1CCCC1 | -16% | -6%
COc1cccc(CNC(=O)CCc2c(C)c3cc4c(C)coc4c(C)c3oc2=O)c1 | ? | -4%
Cc1ccc(C)c(NC(=O)CSC2=Nc3ccccc3N=C(c3ccc(F)cc3)C2)c1 | ? | -1%
CC(C)(C)C1CCc2nc(NC(=O)Cc3ccc(Cl)cc3)sc2C1 (stereo unspecified) | ? | ?
Cc1nn(C)c2c1c(-c1ccccc1)cc(=O)n2CC(=O)NC(C)C | -29% | -4%
CCOC(=O)c1cc2c(=O)n3ccccc3nc2n(CC2CCCO2)c1=NC(=O)c1ccccc1F (stereo unspecified) | ? | -8%
CC(=O)Nc1ccc(NC(=O)c2cc(-c3ccc4c(c3)OCCO4)on2)cc1 | -20% | 9%
Cc1c(Cl)cccc1NC(=O)Cn1c(=O)nc(-c2ccccc2)c2ccccc21 | -7% | ?
Fc1ccc(-c2ccc(CNCCSc3nnnn3-c3ccccc3)o2)cc1 | ? | -8%
CCc1ccc(CNC(=O)C2CCCN(S(=O)(=O)c3ccc4c(ccn4C)c3)C2)cc1 (stereo unspecified) | ? | 0%
CCOC(=O)c1ccc(NC(=O)CN2Cc3ccccc3C2=O)cc1 | 10% | -8%
Cc1cccc(CNS(=O)(=O)c2ccc3[nH]c(=O)ccc3c2)c1 | -17% | -6%
Cc1c(Cl)cccc1NC(=O)CCS(=O)(=O)c1ccc2c(c1)CC(=O)N2C | -28% | -2%
CCCn1c(SCc2nc(-c3cc(OC)ccc3OC)no2)nnc1-c1ccc(Cl)cc1 | ? | -23%
O=C(c1ccc(CS(=O)c2ccccc2Cl)o1)N1CCN(c2cccc(Cl)c2)CC1 (stereo unspecified) | ? | ?
Cc1ccc(NC(=O)c2cc(C)nc3c2c(C)nn3-c2cccc(Cl)c2C)c(C)c1 | -3% | -12%
Cc1ccc(Sc2ccc(N3CCCC(C(=O)Nc4ccc(Cl)cc4)C3)nn2)cc1 (stereo unspecified) | -24% | ?
COc1ccc(-c2noc(N(c3ccc(F)c(Cl)c3)c3nc(-c4ccc(OC)c(OC)c4)no3)n2)cc1OC | ? | ?
CCC(=O)N1CCc2cc(Br)cc(S(=O)(=O)CCC(=O)Nc3cccc(Cl)c3)c21 | -22% | -15%
Cc1cccc(NC(=O)c2c(NC(=O)C(F)(F)F)sc3c2CCCCC3)c1 | 10µM* | 2µM*
COC(=O)c1ccc2c(c1)sc(=NC(=O)c1ccc(S(=O)(=O)N3CCCCC3)cc1)n2C | -11% | 1%
CCOc1ccc(CCNC(=O)c2ccc3c(c2)c(C)c(C)n3Cc2ccccc2)cc1OCC | ? | ?
COc1ccc2c(c1)c(N1CCCC1=O)c(C(=O)Nc1cc(C)c(Cl)cc1OC)n2C | ? | -19%
Cc1cc(=O)oc2cc(OCC(=O)Nc3c(C(C)C)cccc3C(C)C)ccc12 | ? | -2%
CCOc1ccc(N(C(=O)Cn2nnc3ccccc32)C(C(=O)NCc2ccccc2)c2ccc(OC)cc2)cc1 (stereo unspecified) | 0% | -5%
CCOC(=O)Cn1c(=O)n(CC2CCCO2)c2nc(-c3cc(OC)ccc3OC)nc(C(N)=O)c21 (stereo unspecified) | 1% | -14%
CCN(CC)C(=O)Cn1cc(SCC(=O)Nc2ccc(C)cc2)c2ccccc21 | -21% | -11%
Cc1nc2nncn2c(Nc2ccc(F)cc2)c1C | ? | ?

Some of the entries above in another layout:
molecule	PMP22 txn	HTT prom inh
Cc1cc(=O)oc2cc(OCC(=O)Nc3c(C(C)C)cccc3C(C)C)ccc12	?	-2%
COc1ccc2c(c1)c(N1CCCC1=O)c(C(=O)Nc1cc(C)c(Cl)cc1OC)n2C	?	-19%

Screens (PubChem)
